Screening results deposited in PubChem by National Center for Advancing Translational Sciences (NCATS).
2A StopGo = lowers the luciferase signal of an FMDV 2A StopGo reporter | human cells with a luciferase reporter of 2A StopGo recoding; control for the full effect not named in the record | hit rate 1.2% among 410,000 | Potency, µM (highest dose often 57.9 µM), for inactives: at the top dose signal change, negative = less light; active = well fitted falling curve with a large enough effect; inconclusive = small, poorly fitted or top-dose-only effect; inactive = no such curve, though single readings can be large or run the other way; tested in HEK293T cells; further: on the % scale 0 is the no-effect control and ±100 the full control effect; nearly all actives have a fitted effect of over 45% in size; luciferase light after 4 h
RE007 growth inh = less growth of the S. pombe RE007 Vpr strain. S. pombe RE007 Vpr strain, BacTiter-Glo ATP luminescence, 24 h; control for the full effect not named in the record. Potency, µM (series often up to 92.2 µM), without a hit: at the top dose activity change, negative = less growth. hit rate 0.21% among 360,000. AID 651644; active = well fitted falling curve with a large enough effect; inconclusive = small, poorly fitted or top-dose-only effect; inactive = no such curve, though single readings can be large or run the other way;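 further: on the % scale 0 is the no-effect control and ±100 the full control effect; nearly all actives have a fitted effect of over 50% in size; the assay follows cell death caused by Vpr and the record does not say whether a fall means rescue or toxicity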
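Fission yeast strain RE007, carrying one chromosomally integrated HIV-1 vpr copy, was seeded at OD 0.01 in PMG+AL medium with 23 nL pinned compound. After 24 h at 30 °C and 99% humidity, viability was read by BacTiter-Glo luminescence.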
SARS PLpro yeast = SARS-CoV PLP inhibition in yeast; S. cerevisiae expressing SARS-CoV PLpro, growth rescue; control for the full effect not named in the record; hit rate 0.19% among 330,000; Potency, µM (series often up to 32.9 µM), inactives show top-dose activity, positive = growth rescue; AID 485353; active means well fitted rising curve with a large enough effect; inconclusive means small, poorly fitted or top-dose-only effect; inactive means no such curve, though single readings can be large or run the other way; further: 0% is about no effect; nearly all actives have a fitted effect of over 55% in size; growth read by luminescence after 48 h
* marks the source's active call; other numbers are inactive results; ? = inconclusive; & = joins results of further samples; [ ] = remark or other dose. Potency means the concentration at half of the fitted maximal effect.

SMILES	2A StopGo	RE007 growth inh	SARS PLpro yeast
CC1CCCC(C)N1C(=O)COC(=O)c1c[nH]c2ccccc12 (stereo not drawn)	24%	1%	9%
C[C@H](NC(=O)c1ccc(C(C)(C)C)cc1)C(=O)N1CCOCC1	-19%	1%	1%
CC1CC(C)CN(C(=O)CSc2n[nH]c(N)n2)C1 (stereo not drawn)	2%	9%	0%
COc1ccc(OCC(=O)OCC(=O)NCC2CCCCC2)cc1	-23%	3%	-2%
C[C@]12CC[C@H](OS(=O)(=O)O)CC1=CC[C@@H]1[C@@H]2CC[C@]2(C)C(=O)CC[C@@H]12	-16%&-15%&-21%	-2%	0%
CCOC(=O)[C@H]1[C@H]2COc3ccc(Br)cc3[C@@H]2N2C(=O)CN(Cc3ccc(Cl)cc3)C(=O)[C@@]12C	-27%	4%	-5%
C=CC[C@@H](CC(=O)N[C@@H](CO)Cc1ccccc1)C(=O)N[C@H](COC(=O)[C@@H](CC=C)Cc1ccc(F)cc1)Cc1c[nH]c2ccccc12	-27%	6%	-1%
Cc1ccc(S(=O)(=O)N2CCC(C(=O)OC(C)C(=O)NC3CCCCC3C)CC2)cc1 (stereo not drawn)	-18%	16%	1%
c1ccc(NC2=NCCN2CCCC2CCCC2)cc1	-12%	3%	1%
O=C(NS(=O)(=O)Nc1ccccc1)C1=C(N2CCCC2)COC1=O	11%	-9%	3%
CN(C)CCCNC(=S)NCCNc1nc2cc3c(cc2cc1C#N)OCO3	-2%	-2%	4%
CCCNC(=O)CSc1ccc(S(=O)(=O)N2CCCC2)cn1	-1%	-10%	-6%
CSCCC(NC(=O)c1ccccc1Cl)C(=O)N1CCCCCCC1 (stereo not drawn)	4%	3%	-13%
C#CCOCCOCCOCCNc1nc(N2CCN(C(=O)[C@H]([C@@H](C)O)n3cc(CCCCN)nn3)CC2)nc(N2CCN(C(=O)[C@H]([C@@H](C)CC)n3cc(CCCCN)nn3)CC2)n1	0%	-3%	-1%
Cc1ccc(C2(C)NC(=O)N(CC(=O)Nc3ccc4c(c3)CCC4)C2=O)cc1 (stereo not drawn)	-22%	-21%	2%
Cc1cccc([N+](=O)[O-])c1NC(=O)COC(=O)C1CCCO1 (stereo not drawn)	-11%	3%	0%
Nc1cc(S(=O)(=O)N2CCOCC2)ccc1N1CCOCC1	-3%	-3%	1%
O=C(OCC(=O)N1CCN(C(=O)c2ccco2)CC1)c1ccc(Cl)nc1	-6%	-16%	-4%
CN(Cc1ccccc1)S(=O)(=O)c1ccc(Cl)c(C(=O)OCC(=O)NC2CCS(=O)(=O)C2)c1 (stereo not drawn)	-18%	-5%	-1%
CCOC(=O)C1=CC[C@@H](c2ccco2)N(S(=O)(=O)c2ccc(C)cc2)[C@H]1C(=O)OCC	78%[activator]	-4%	-1%
CN1CCCN(C(=O)/C=C/c2ccc(Cl)cc2Cl)CC1	-3%	-8%	0%
CC1=C(C)CC2C(C1)C(=O)c1ccc(Br)cc1S2(=O)=O (stereo not drawn)	-24%	-4%	1%
O=C(CCSCCC(=O)Nc1c(F)c(F)c(F)c(F)c1F)Nc1c(F)c(F)c(F)c(F)c1F	12%	-5%	0%
CCn1nc(C(=O)NNC(=O)c2ccccc2OCc2c(C)noc2C)c2ccccc2c1=O	-28%	0%	1%

A draw from above in order of length of the SMILES, low to high.
SMILES	2A StopGo	RE007 growth inh	SARS PLpro yeast
CN1CCCN(C(=O)/C=C/c2ccc(Cl)cc2Cl)CC1	-3%	-8%	0%
Cc1cccc([N+](=O)[O-])c1NC(=O)COC(=O)C1CCCO1 (stereo not drawn)	-11%	3%	0%
O=C(OCC(=O)N1CCN(C(=O)c2ccco2)CC1)c1ccc(Cl)nc1	-6%	-16%	-4%
Cc1ccc(C2(C)NC(=O)N(CC(=O)Nc3ccc4c(c3)CCC4)C2=O)cc1 (stereo not drawn)	-22%	-21%	2%
CCOC(=O)C1=CC[C@@H](c2ccco2)N(S(=O)(=O)c2ccc(C)cc2)[C@H]1C(=O)OCC	78%[activator]	-4%	-1%

Remaining list, next part:
SMILES	2A StopGo	RE007 growth inh	SARS PLpro yeast
CC1CCC(NC(=O)COC(=O)c2ccco2)CC1 (stereo not drawn)	43%[activator]	16%	-2%
CCN(CC)C(=O)COc1ccc2c(c1)C(=O)CC(C)(C)O2	43%[activator]	-9%	0%
Cc1ccc(C(=O)CCC(=O)NNC(=O)c2ccccc2O)cc1	-20%	0%	5%
CCOC(=O)[C@H]1[C@H]2COc3cc(OC)ccc3[C@@H]2N2C(=O)c3cc(C)ccc3NC(=O)[C@@]12C	-18%	-8%	4%
COc1ccc(/C=N/NC(=O)c2ccc(N(C)S(=O)(=O)c3ccccc3)cc2)c(OC)c1	-18%	132%	1%
CCOc1ccc(/C=C/C(=O)OCC(=O)Nc2cccc(S(=O)(=O)N3CCCC3)c2)cc1	34%[activator]	-6%	-9%
Cc1ccc(C2(C)NC(=O)N(CC(=O)N3c4ccccc4NC(=O)CC3C)C2=O)cc1 (stereo not drawn)	-11%	2%	0%
CN(c1ccc(OCC(=O)N2CCCC2)cc1)S(=O)(=O)c1ccc(Cl)cc1	-17%	5%	2%
CC(C)(C)OC(=O)C[C@H]1C/C=C\C[C@H](CC(=O)NCCO)C(=O)N[C@@H](c2ccccc2)COC1=O	-18%	9%	5%
COc1ccc(N2CCN(C(CNC(=O)C(=O)NCc3cccnc3)c3ccco3)CC2)cc1 (stereo not drawn)	-4%	-2%	1%
COc1ccc2nc(NC(=S)NC(=O)c3ccco3)sc2c1	77%[activator]	6%	-2%
C[C@]12c3[nH]c4ccc(Cl)cc4c3CCN1C(=O)[C@@H](CC(=O)NCCCn1ccnc1)C[C@@H]2C(=O)N1CCCCC1	-21%	2%	14%
Cc1ccc(N(C)S(=O)(=O)c2cccc(C(=O)NNC(=O)c3ccncc3)c2)cc1	-26%	4%	0%
Cc1nnc(N=c2ssnc2Cl)o1	?	17%	1%
CCOC(=O)[C@@H]1[C@H]2COc3ccccc3[C@H]2N2C(=O)N(c3cccc(C)c3)C(=O)[C@]12C	-10%	13%	7%
CCC1=NN2C(=N)/C(=C\c3ccc(OCc4cc(=O)n5nc(CC)sc5n4)c(OC)c3)C(=O)N=C2S1	-19%	-10%	29%
COc1ccc(CNC(=O)CN2C(=O)NC3(CCCc4sccc43)C2=O)cc1OC (stereo not drawn)	-17%	-1%	5%
Cc1ccc(C)c(C(=O)COC(=O)c2ccc(C)c(S(=O)(=O)N3CCOCC3)c2)c1	?	19%	-2%
CCN(Cc1nc2ccccc2c(=O)[nH]1)C(=O)CN1C(=O)NC2(CCCCC2C)C1=O (stereo not drawn)	0%	-12%	7%[6.58 µM]
CN(CC(=O)Nc1ccc(Cl)cc1F)C1CCS(=O)(=O)C1 (stereo not drawn)	-22%	-11%	5%
COCCN(CCOC)S(=O)(=O)NC[C@H]1O[C@@H](n2cnc3c(N)ncnc32)[C@H](O)[C@@H]1O	-16%	0%	4%
COc1ccc(CCNC(=O)COC(=O)c2cc3ccccc3oc2=O)cc1OC	0%	9%	2%
O=C(Nc1cccc(S(=O)(=O)NC2=NCCC2)c1)c1cnc(Cl)c(Cl)c1	-1%	-14%	-1%
Cc1cc2nc(C(F)(F)F)cc(-c3cccs3)n2n1	-18%	-8%	-5%

Only RE007 growth inh (two entries from above):
| mol | RE007 growth inh |
| --- | --- |
| COc1ccc(CCNC(=O)COC(=O)c2cc3ccccc3oc2=O)cc1OC | 9% |
| O=C(Nc1cccc(S(=O)(=O)NC2=NCCC2)c1)c1cnc(Cl)c(Cl)c1 | -14% |

The list continues:
SMILES	2A StopGo	RE007 growth inh	SARS PLpro yeast
CC(=O)Oc1ccc(Nc2ccccc2)cc1	-3%	-16%	0%
Cc1ccc(CNC(=O)CN2C(=O)NC3(CC(C)CC(C)(C)C3)C2=O)cc1 (stereo not drawn)	2%	-3%	-3%
CC(=O)Oc1c(C)c2c3c(c1OC(C)=O)[C@@H](C)CC[C@@H]3[C@@H](C)C[C@H]2C=C(C)C	-22%	-2%	0%
COc1ccc([C@@H]2CC=C(C(=O)O)[C@H](c3ccc(Cl)cc3)N2S(=O)(=O)c2ccc(Cl)cc2)cc1	-13%	19%	3%
CCc1nnc(NC(=O)c2sc3nc(C)cc(COC)c3c2N)s1	23%	5%	2%
CC(C)c1ccc(NC(=O)C2C3C=CC4(CN(Cc5cccnc5)C(=O)C24)O3)cc1 (stereo not drawn)	7%	3%	3%
Cc1cc(Cl)ccc1OCCn1cncn1	3%	11%	-3%
O=C(COC(=O)Cc1ccc(Cl)cc1)NCc1ccc(F)cc1	-17%	9%	-2%
Cc1ccn2c(NC3CCCCC3)c(-c3cccc(SC4CCCCC4)c3)nc2c1	?	-24%&-25%	-6%
CC(C)c1ccc(NC(=O)C2CCCCN2S(=O)(=O)c2ccccc2)cc1 (stereo not drawn)	-2%	24%	6%
Cc1c(CCOC(=O)c2cc([N+](=O)[O-])cc([N+](=O)[O-])c2)sc[n+]1CC(=O)c1ccccc1	-7%	-24%	-2%
COc1ccc(NC(=S)Nc2cccnc2)c(OC)c1	17%	-7%	-1%
O=c1[nH]ncc(N/N=C\c2ccncc2)c1Cl	-4%	?	-1%
COc1ccc(N/N=C(\C#N)C(=N)SCc2ccccc2)cc1	?	6%	-22%
Cn1c(C=O)c(-c2ccc3cc[nH]c3c2)c2ccccc21	0%	-6%	7%
COC(=O)[C@]1(C)N[C@H](CN(C)C(=O)Nc2ccc(F)cc2)[C@@H]2C(=O)N(C)C(=O)[C@@H]21	-16%	4%	-8%
CC(C)NC(=O)N(C)C[C@H]1Oc2ccc(NC(=O)Cc3ccccc3)cc2C(=O)N([C@H](C)CO)C[C@@H]1C	-12%	-11%	1%
O=C1/C(=C/c2ccccn2)SC(=S)N1NS(=O)(=O)c1ccccc1	15%	8%	4%
O=C(Nc1ccccc1N1CCCCC1)C1CC(=O)N(c2ccccc2F)C1 (stereo not drawn)	-27%	14%	-4%
CNC(=S)Nc1ccc([N+](=O)[O-])c(C)c1	26%	-12%	1%
COc1ccc(NC(=O)CN2CCN(S(=O)(=O)c3cccs3)CC2)cc1Cl	-19%	3%	-1%
O=C(COC(=O)C12CC3CC(CC(O)(C3)C1)C2)NCCc1ccc(Cl)cc1	-2%	4%	-1%
COc1cc(OC)cc(-c2c(-c3ccc(F)cc3)c3cc(-c4ccc(SC)cc4)ccc3n2C)c1	-3%	2%	1%
NC(=O)c1ccsc1NC(=O)COC(=O)COc1ccc(C=O)cc1	-4%	-15%	2%
CSc1nnc(SCC(=O)Nc2ccc3[nH]c(=O)[nH]c3c2)s1	-15%	15%	-4%
CC1CN(C(=O)c2cc(Br)c(Br)s2)CC(C)O1 (stereo not drawn)	-10%	-9%	2%
Cn1ccnc1SCC(=O)Nc1cccc(C#N)c1	9%	-10%	5%
CC1CCC(CN2CCN=C2N(C)C)CC1 (stereo not drawn)	0%	-6%	3%
O=C(COC(=O)COc1ccc(Cl)cc1Cl)NC1CCS(=O)(=O)C1 (stereo not drawn)	-25%	5%	2%
O=C(c1ccco1)N1N=C(c2ccco2)CC1c1ccc(Cl)cc1Cl (stereo not drawn)	-19%	-16%	-2%
COc1cc(C(=O)OCC(=O)NC2CC2)cc(OC)c1OC	-9%	-5%	-1%
CN(CC(=O)Nc1ccc(OC(F)(F)F)cc1)C(=O)C1CCC1	-18%	-10%	1%
O=c1c(-c2c(O)cc(O)c3c2O[C@H](c2ccc(O)cc2)CC3)c(-c2ccc(O)cc2)oc2cc(O)cc(O)c12	-28%	11%	9%
Cc1ccc(S(=O)(=O)N2[C@@H](c3ccccc3F)C(C(=O)O)=CC[C@H]2c2ccc(Cl)cc2)cc1	21%	-8%	5%
CC(OC(=O)c1ccc(Cl)cc1)C(=O)NCc1ccc2c(c1)OCO2 (stereo not drawn)	-20%	5%	1%
Cc1ccccc1NC(=S)NCC1CCN(C(C)c2ccccc2)C1 (stereo not drawn)	-10%	-12%	2%
COc1ccc(C(=O)Nc2ccc(Br)cn2)cc1S(=O)(=O)N1CCOCC1	?	12%	4%
C=CCOc1ccc(C[C@H](N)C(=O)NC[C@H]2O[C@@H](n3cnc4c(N)ncnc43)[C@H](O)[C@@H]2O)cc1	-15%	-4%	-3%
Cc1ccc(C(=O)c2nc(C(=O)NCCO)nc3ccccc23)cc1	-5%	-3%	4%
O=C(NCCN1CCOCC1)c1ccc(CSc2nc3ccncc3n2Cc2ccc(F)cc2)cc1	11%	-25%	0%
Cc1ccc(CN2[C@@H](Cc3ccccc3)C(=O)CS2(=O)=O)cc1	0%	-6%	5%
C/C(=N\NC(=O)COc1ccc([N+](=O)[O-])cc1)c1ccco1	-6%	-1%	3%
COc1cc(/C=C/C(=O)OCc2csc(CC(=O)Nc3ccc(C)cc3)n2)ccc1OCC#N	-4%	-5%	2%
CCCc1cc(NC(=O)COC(=O)c2ccc(O)cc2O)n(-c2ccccc2)n1	?	-13%	0%
N#Cc1ccccc1OCC(=O)NCC(c1ccc(F)cc1)N1CCOCC1 (stereo not drawn)	2%	-7%	-3%

Not all compounds are listed, so the mix of outcomes need not match the whole.
